Assay outcomes as filed in PubChem BioAssay.
INS promoter inh: inhibitors of insulin promoter-driven GFP, primary screen, imaging, TRM-6 cells (human fetal islet line), eGFP reporter, cell count; reporter expression induced with tamoxifen; inhibition, % at 2 µM; hit rate 0.9% among 130,000; AID 1273, 2008;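 active = inhibition above the mean plus 3 SD, with well images judged a real hit on visual review, cut at about 60% in these data, passing the limit was not always enough; inconclusive = inhibition over the cutoff but images rejected on review; inactive = inhibition not above the cutoff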
HSV replic up: enhancers of HSV replication in host cells, fold increase, host cell viability. HSV replication augmentation in cells. maximum fold increase. hit rate 0.005% among 220,000;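 active = peak rise of 1.5-fold or more in the series; inconclusive = self-fluorescent or not available for retest; tested in PC3 cells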;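 also: first round at 10 µM; read as green reporter fluorescence; hits show the peak of a series up to 25 µM; 1 = signal of infected wells without compound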
PKD1 inh: inhibitors of human PKD1 kinase, biochemical, fluorescence polarization. AID 797, 2007. inhibition, %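 (about 10 µM by stock and volumes)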. Serine/threonine-protein kinase D1 (Homo sapiens), Q15139. PKD1 kinase fluorescence polarization assay. hit rate 0.056% among 200,000;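 active = inhibition of 50% or more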;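 also: controls were vehicle for no effect and a reference inhibitor for full effect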
GALR2 ag: GALR2 receptor agonists, primary screen, cell-based; Galanin receptor type 2 (Homo sapiens), O43603; GALR2-expressing cells, agonist activation read-out; activation, %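 (tested at 5 µM)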; hit rate 0.48% among 140,000; AID 803, 2007;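 active = above mean plus 3 SD of all compounds, about 5% in these data, not always enough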;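 also: 0% = vehicle buffer wells and 100% = reference agonist at full effect; tested in CHO reporter cells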
Target sequence (O43603 whole entry, looked up): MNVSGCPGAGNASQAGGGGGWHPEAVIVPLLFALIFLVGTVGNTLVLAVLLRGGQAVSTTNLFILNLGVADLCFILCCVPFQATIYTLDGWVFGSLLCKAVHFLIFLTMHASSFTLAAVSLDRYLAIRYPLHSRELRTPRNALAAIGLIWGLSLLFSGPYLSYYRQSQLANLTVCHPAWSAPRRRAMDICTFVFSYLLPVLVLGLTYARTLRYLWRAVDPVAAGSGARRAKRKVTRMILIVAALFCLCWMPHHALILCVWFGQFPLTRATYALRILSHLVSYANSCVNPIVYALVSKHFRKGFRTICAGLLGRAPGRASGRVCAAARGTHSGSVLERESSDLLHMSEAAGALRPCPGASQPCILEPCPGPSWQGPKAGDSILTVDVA
RGS16-Gao: modulators of RGS16 binding to Galphao, primary screen, biochemical, human proteins, multiplexed bead flow cytometry; bead-based flow cytometry RGS16-Galphao binding, fluorescence; actives lie on both sides; Regulator of G-protein signaling 16 (Homo sapiens) + Guanine nucleotide-binding protein …; AID 1441, 2008; binding response (% of control), % at 10 µM; hit rate 0.38% among 220,000;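 active = below 25% or above 175%, edge rows of some plates excepted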;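 also: Galphao activated by GDP with aluminum fluoride before binding; 100% = wells without compound and 0% = beads without RGS; some results beyond the cut were filed as inactive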
Target sequence (O15492 whole entry, looked up): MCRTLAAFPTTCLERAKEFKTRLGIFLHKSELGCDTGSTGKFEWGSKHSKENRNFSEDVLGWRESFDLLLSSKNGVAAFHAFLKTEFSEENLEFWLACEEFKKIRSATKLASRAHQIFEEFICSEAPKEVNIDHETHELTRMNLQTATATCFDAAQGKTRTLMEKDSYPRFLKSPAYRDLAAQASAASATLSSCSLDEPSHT
Target sequence (P09471 whole entry, looked up): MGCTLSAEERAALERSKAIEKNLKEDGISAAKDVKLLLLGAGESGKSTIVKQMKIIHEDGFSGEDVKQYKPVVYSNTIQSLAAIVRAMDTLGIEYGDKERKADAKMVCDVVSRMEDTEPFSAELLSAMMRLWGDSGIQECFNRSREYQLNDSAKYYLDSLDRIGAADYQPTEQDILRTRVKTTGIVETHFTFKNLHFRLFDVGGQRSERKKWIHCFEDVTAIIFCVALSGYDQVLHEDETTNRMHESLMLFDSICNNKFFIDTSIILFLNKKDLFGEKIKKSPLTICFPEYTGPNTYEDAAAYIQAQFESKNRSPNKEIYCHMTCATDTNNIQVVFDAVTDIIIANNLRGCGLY
INS promoter inh cell count: recorded beside INS promoter inh, whose call it bears; normalized cell count, %; measured here: cell count, toxicity; reference of the scale not given here;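 cells exposed to compound for 48 h; stained nuclei by imaging scaled within each plate; lower means fewer cells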
HSV replic up primary fold: recorded beside HSV replic up, whose call it bears; fold increase; compound at 10 µM; measured here: primary screen fold increase 10 uM; tested in PC3 cells;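 GFP signal in the first replicate; 1 = infected wells without compound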
The depositor's hits bear a star; i = inactive; ? = inconclusive; / = not tested or not shown.

The opening 4 records (preview)
SMILES | INS promoter inh | INS promoter inh cell count | HSV replic up | HSV replic up primary fold | PKD1 inh | GALR2 ag | RGS16-Gao
CCN(CC)c1ccc(C=Nc2ccc(C#N)cc2)c(O)c1 | / | / | i | 1.1 | 4 | -2.1 | 97
CS(=O)(=O)N(Cc1ccccc1F)c1ccccc1 | 22 | 95 | i | 1.1 | -1 | -2.5 | 105
Cc1ccccc1C(=O)NNC(=O)C(=O)N1CCCCC1 | -10 | 88 | i | 1.1 | -14 | 1.8 | 102
CCOC(=O)c1cc(NC(=O)c2ccoc2C)cc(C(=O)OCC)c1 | -52 | 37 | i | 0.96 | -3 | -0.7 | 98

This part in full, repeating the preview:
SMILES | INS promoter inh | INS promoter inh cell count | HSV replic up | HSV replic up primary fold | PKD1 inh | GALR2 ag | RGS16-Gao
CCN(CC)c1ccc(C=Nc2ccc(C#N)cc2)c(O)c1 | / | / | i | 1.1 | 4 | -2.1 | 97
CS(=O)(=O)N(Cc1ccccc1F)c1ccccc1 | 22 | 95 | i | 1.1 | -1 | -2.5 | 105
Cc1ccccc1C(=O)NNC(=O)C(=O)N1CCCCC1 | -10 | 88 | i | 1.1 | -14 | 1.8 | 102
CCOC(=O)c1cc(NC(=O)c2ccoc2C)cc(C(=O)OCC)c1 | -52 | 37 | i | 0.96 | -3 | -0.7 | 98
O=C(CSc1nc2ccccc2[nH]1)N/N=C/C=C/c1ccccc1[N+](=O)[O-] | -65 | 70 | i | 0.86 | 3 | -1.2 | 103
CC(C)CC(c1nnnn1Cc1cccs1)N1CCN(c2nc3ccccc3s2)CC1 (stereo not given) | 69 | 77 | i | 0.73 | -5 | -1.7 | 107
C=CCn1c(SCc2c(F)c(F)c(F)c(F)c2F)nc(O)cc1=O | -64 | 156 | i | 0.94 | -6 | -0.1 | 77
CCOC(=O)c1cc(-c2ccccc2)sc1NC(=O)C(C)OC(=O)c1cccnc1OCC (stereo not given) | / | / | i | 1.2 | 3 | 0.7 | 103
O=C(C1CCN(c2nnc(N3CCCC3=O)s2)CC1)N1CCN(Cc2ccc3c(c2)OCO3)CC1 | / | / | i | 0.99 | -2 | -1.7 | 103
CCNc1nc(SCC(=O)Nc2ccc(Cl)c(Cl)c2)nc(N(C)C)n1 | 31 | 142 | / | / | 3 | / | 104
CC(C)c1ccc2oc(-c3ccc(N)cc3)nc2c1 | 67 | 191 | i | 0.8 | 2 | -1.9 | 101
COc1ccc(CCn2c(=O)c3cccnc3n(Cc3ccc([N+](=O)[O-])cc3)c2=O)cc1OC | / | / | i | 1 | -2 | / | 89
O=C(NCC1(c2ccccc2)CCCC1)c1ccccc1Br | -43 | 82 | i | 1 | -9 | -0.9 | 96
O=C1c2ccccc2C(=O)N1c1cccc(-c2csc(Nc3ccc4c(c3)OCO4)n2)c1 | / | / | i | 0.95 | -1 | -0.6 | 83
Cc1scc(C(=O)N2CCN(c3ccc(Cl)cc3)CC2)c1C | / | / | i | 1 | 6 | / | 95
CCN(CC)C(=O)COC(=O)c1cc(-c2ccc(OC)cc2)nc2ccccc12 | 54 | 143 | i | 0.85 | -4 | -3.9 | 97
Cc1cc(C)n(C(=O)c2ccc([N+](=O)[O-])c(Cl)c2)n1 | -5 | 62 | i | 0.9 | -9 | -0.7 | 63
Cn1c(=O)c2c(nc(CN3CCOCC3)n2CCCO)n(C)c1=O | 13 | 112 | i | 0.98 | 0 | -1.4 | 94
NNc1nc(-c2ccccc2)cc(-c2ccccc2O)n1 | 50 | 66 | i | 0.95 | 8 | 0.9 | 99
C=CCNC(=S)Nc1ccccc1 | -32 | 143 | i | 0.94 | 8 | -2.0 | 103
CC(=O)CSc1nnc(-c2ccc(S(=O)(=O)N3CCC(C)CC3)cc2)o1 | -350 | 79 | i | 1.1 | -9 | -2.1 | /
OCCN1CCOCCN(CCO)CCOCC1 | / | / | i | 0.94 | -4 | -0.3 | 94
Cc1cccc(S(=O)(=O)c2c(N)n(Cc3ccco3)c3nc4ccccc4nc23)c1 | -6 | 96 | ? | / | 6 | 1.0 | 102
COc1cc(-c2nc3oc4ccccc4c(=O)c3c(=O)n2Cc2ccco2)cc(OC)c1OC | -6 | 118 | i | 0.71 | -9 | -0.2 | 98
Cc1ccc(CNC(=O)C2CCCN(S(=O)(=O)c3c(C)n[nH]c3C)C2)cc1 (stereo not given) | 8 | 108 | i | 1 | 0 | 0.1 | 107
Cc1cc(OCCN2CCOCC2)nc2ccccc12 | -45 | 166 | i | 0.82 | -2 | -0.1 | 104
Cc1c(C)c2ccc(Oc3ccc([N+](=O)[O-])cc3C(F)(F)F)c(C)c2oc1=O | / | / | / | / | -1 | 0.0 | 101
c1csc(-c2nnc(-c3ccc(N4CCOCC4)cc3)o2)c1 | 24 | 92 | i | 0.9 | 1 | -2.5 | 103
COc1ccc(NC(=O)CSc2nnc(-c3ccccn3)n2N)cc1Cl | -68 | 95 | i | 0.85 | -10 | -2.0 | 100
Cc1cc(C(=O)CSc2nnc(-c3ccc(F)cc3)o2)c(C)n1CC1COc2ccccc2O1 (stereo not given) | -8 | 188 | i | 0.97 | 1 | -1.3 | 100
CCc1c(C)nc2ncnn2c1N1CCC(C(=O)NCc2ccc3c(c2)OCO3)CC1 | 19 | 118 | i | 1 | -4 | 0.1 | 95
O=C(CN1CCC(n2nnc3cc(F)ccc32)CC1)NCc1ccco1 | / | / | i | 1.1 | -10 | -0.2 | 89
O=C(/C=C\NCC(=O)c1ccccc1)c1ccc(F)cc1 | / | / | i | 1.2 | 5 | -4.2 | 129
CCOCCn1c(SCc2ccc(C)cc2)nc2c1c(=O)[nH]c(=O)n2C | / | / | i | 0.76 | 1 | -3.8 | 103
Cc1ccc(-n2cccn2)c(CN2CCCC(C(=O)c3sccc3C)C2)c1 (stereo not given) | / | / | i | 1 | 3 | / | 99
O=C(Nc1nc(-c2ccccc2)cs1)c1cccc(S(=O)(=O)N2CCN(Cc3ccccc3)CC2)c1 | -48 | 82 | / | / | -5 | -1.4 | 103

Already shown: 3 of the compounds above.
SMILES | INS promoter inh | INS promoter inh cell count | HSV replic up | HSV replic up primary fold | PKD1 inh | GALR2 ag | RGS16-Gao
CCOCCn1c(SCc2ccc(C)cc2)nc2c1c(=O)[nH]c(=O)n2C | / | / | i | 0.76 | 1 | -3.8 | 103
Cc1ccc(-n2cccn2)c(CN2CCCC(C(=O)c3sccc3C)C2)c1 (stereo not given) | / | / | i | 1 | 3 | / | 99
O=C(Nc1nc(-c2ccccc2)cs1)c1cccc(S(=O)(=O)N2CCN(Cc3ccccc3)CC2)c1 | -48 | 82 | / | / | -5 | -1.4 | 103

Additional compounds
SMILES | INS promoter inh | INS promoter inh cell count | HSV replic up | HSV replic up primary fold | PKD1 inh | GALR2 ag | RGS16-Gao
CCCCc1ccc(NC(=O)CSCc2cc(=O)[nH][nH]2)cc1 | 17 | 107 | i | 0.89 | -11 | -3.4 | 101
CC(=O)N1N=C(c2ccc(C)cc2)OC1c1ccc(C)cc1 (stereo not given) | -25 | 84 | i | 0.87 | 3 | 77* | 105
COCCNc1cc(C)nc2c(-c3ccccc3OC)c(C)nn12 | / | / | i | 0.87 | -12 | -1.7 | 114
C=CCn1c(C(C)C)nc2ccccc21 | 33 | 129 | i | 1 | 0 | / | 95
Cc1onc(-c2c(Cl)cccc2Cl)c1C(=O)NC(=S)Nc1sc2c(c1C(N)=O)CCC(C)C2 (stereo not given) | 12 | 118 | i | 0.95 | -8 | -0.9 | 99
CCOC(=O)Nc1c(C(=O)OC)[nH]c2cc(OC)ccc12 | 8 | 128 | i | 0.79 | -5 | -3.2 | /
CCC(C(=O)O)N1C(=O)/C(=C/C(C)=C/c2ccccc2)SC1=S (stereo not given) | / | / | i | 1.1 | / | / | 108
O=C(NCCN1CCOCC1)C(=O)NCc1ccc2c(c1)OCO2 | 28 | 115 | i | 0.95 | 8 | / | 97
COCCN(CC(=O)NCC1CCCO1)C(=O)CCC(=O)Nc1ccccn1 (stereo not given) | -113 | 65 | i | 0.95 | -5 | / | 100
CCOc1ccc(NC(=O)CSc2nnc(Cn3cnc4ccccc43)n2C)cc1 | -327 | 145 | i | 0.89 | -3 | -0.7 | 105
Cc1nonc1CN(C)C(=O)c1ccc(OC2CCN(C(=O)c3cccnc3)CC2)cc1 | / | / | i | 1.1 | 0 | / | 102
O=C1COc2ccc(C(=O)COC(=O)c3cnc(Cl)c(Cl)c3)cc2N1 | / | / | i | 0.87 | 3 | / | 98
CCn1nc(C)c(Br)c1-c1nc(CS(=O)(=O)c2ccsc2)no1 | / | / | i | 0.95 | / | / | 97
CCCc1cc(=O)[nH]c(/N=C(/NC(=O)c2ccccc2)Nc2ccc3c(c2)OCCO3)n1 | / | / | i | 0.75 | -9 | 0.0 | /
Cc1cc(/C=C(\C#N)C(=O)NCc2cccs2)c(C)[nH]1 | / | / | i | 0.96 | -5 | / | 108
COc1cccc(OCCCn2cc(/C=C3/C(=N)N4C=C(C)SC4=NC3=O)c3ccccc32)c1 | -83 | 81 | i | 0.83 | 1 | -0.2 | 119
CC1CC1c1ccc(/C=C(\C#N)C(=O)Nc2cccc(Cl)c2Cl)o1 (stereo not given) | / | / | / | / | -7 | 2.9 | 101
NS(=O)(=O)c1ccc(NCc2ccccc2OCc2ccc(F)cc2)cc1 | / | / | i | 0.94 | 4 | -2.7 | 102
Clc1cccc(Sc2ccc(-c3ccccn3)s2)c1 | / | / | i | 1 | / | / | 107
Cn1c(=O)n(CC(=O)NC2CCCCC2)c(=O)c2ccccc21 | / | / | i | 0.93 | 0 | -0.3 | 93
FC(F)Oc1ccccc1NC(=S)Nc1cccnc1 | 8 | 133 | i | 0.97 | 6 | / | 99
Cc1ccc2c(c1)NC(=O)C(CC(=O)NCCCN1CCCCC1C)O2 (stereo not given) | / | / | i | 0.8 | -8 | -2.3 | 128
O=C(CNCc1ccco1)Nc1cccc(S(=O)(=O)N2CCCCC2)c1 | / | / | i | 0.82 | / | / | 90
Cn1c(N2CCN(C(=O)NC34CC5CC(CC(C5)C3)C4)CC2)nc2ccccc21 | -329 | 66 | i | 1 | -1 | -1.6 | 107
COC(=O)c1ccc(NC(=O)c2cccc(C)c2[N+](=O)[O-])cc1 | / | / | i | 0.91 | -9 | / | 99
CC(C)c1ccc(C(=O)NCc2ccc(Cl)cc2)cc1 | / | / | i | 1.1 | -14 | 0.8 | 99
Cc1ccc(S(=O)(=O)N2CCN=C2SCc2cccnc2)cc1 | -69 | 88 | / | / | -2 | / | 103
CCN(C(=O)CSc1nc2nc(C)cc(C)n2n1)c1ccccc1 | / | / | i | 0.83 | 8 | 1.2 | 103
COc1ccc(O)c(C=Nc2cc(NC(C)=O)c(Cl)cc2Cl)c1 | 15 | 45 | i | 1.1 | -17 | -2.1 | 113
CCCOc1ccc(S(=O)(=O)N2CCCC2)cc1[N+](=O)[O-] | / | / | i | 0.9 | / | / | 124
COc1c(Cl)cc(C(=O)Nc2ccccc2C(=O)O)cc1Cl | 23 | 123 | i | 0.9 | -2 | -1.6 | 55
CCC(=O)Nc1ccc(NC(=S)NC(=O)Cc2ccccc2)cc1 | 33 | 108 | i | 1 | -4 | 0.1 | 93
O=C(CSCc1ccccc1)Nc1cc([N+](=O)[O-])ccc1F | / | / | i | 0.99 | 1 | / | 102
Cc1ccc(C)c(C(=O)COC(=O)c2ccccc2N2C(=O)C3C4CCC(C4)C3C2=O)c1 (stereo not given) | / | / | i | 1.1 | 9 | -2.5 | 104
O=C1CCCc2ccccc2N1Cc1ccc(Cl)cc1 | -16 | 90 | i | 0.78 | 1 | -1.0 | 85
Cc1nc(NC(=S)Nc2ccccc2)sc1C | / | / | i | 1 | 3 | / | 99
Cc1nc(N2CCN(c3ccccn3)CC2)c2c(C)c(C(=O)Nc3ccccc3F)sc2n1 | / | / | i | 0.79 | -8 | / | 100
O=C(CCCn1cnc([N+](=O)[O-])n1)Nc1ccc(Cl)cc1Cl | -32 | 76 | i | 0.99 | 4 | -0.2 | 109
CC(=O)C1=C(C)NC(SCC(=O)c2ccc(C)cc2)=C(C#N)C1c1ccco1 (stereo not given) | -32 | 170 | i | 1.1 | -9 | -0.4 | 104
O=C(c1ccc(CNS(=O)(=O)c2cccc(Cl)c2)cc1)N1CCCC1 | / | / | i | 0.93 | -2 | / | 101
N#CC(c1ccc(Cl)cc1)c1ccc2c(C(F)(F)F)cc(C(F)(F)F)nc2n1 (stereo not given) | -41 | 127 | i | 0.95 | 2 | 0.5 | 104
CCOC(=O)c1cc2c(C)nn(-c3ccccc3)c2s1 | 31 | 74 | i | 1 | -10 | -2.2 | 101
